Source: PubChem
NPYLR7 agonist: agonists of mosquito NPYLR7 receptor, primary screen, cell-based, Aedes aegypti, calcium fluorescence, mosquito biting behavior | Aedes aegypti neuropeptide Y-like receptor 7 (NPYLR7) | HEK293T NPYLR7/Galpha15, GCaMP6s calcium fluorescence | activation, % at 10 µM | hit rate 0.15% among 270,000; in the data active = activation above about 40%;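 note: 0% = vehicle and 100% = reference agonist at the receptor; some compounds past the cut are filed as inactive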
NPYLR7 agonist max-min: also measured in NPYLR7 agonist; calls as there; activation, %; measured here: Max-Min RFU normalised activation; some inactives read as strong as hits;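 span of the calcium signal over five minutes; 0% = vehicle and 100% = native peptide agonist; compound fluorescence can raise it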
Active calls of the source: *; & = joins results of further samples. Only part of the results is shown; rates above refer to the full screens.

SMILES,NPYLR7 agonist,NPYLR7 agonist max-min
COc1cccc(NC(=O)CSc2nc(N)c(NC(=O)c3ccccc3)c(=O)[nH]2)c1,-6,-9
O=C(N[C@@H]1C[C@H]2CC[C@@H]1C2)C1CCCCN1Cc1cnc2ccccn12 (stereo not given in full),1,24
CC(C)CC(N)C(O)C(F)(F)F (stereo not given),5,4
Cc1cccc(-c2nc3c(NCCc4ccccn4)nccc3[nH]2)c1,-7,-9
Cc1sc2nc(C3CC(=O)N(CC4CCC4)C3)[nH]c(=O)c2c1C (stereo not given),-1,-4
COCCCNCC(=O)N(Cc1ccc(F)cc1)Cc1ccc(C)s1,7,2
Cn1cc(-c2csc(C3(NC(=O)OC(C)(C)C)CCCC3)n2)cn1,1,-1
COc1ccc(-c2cc3c(cn2)ncn3Cc2ccc(OC)c(OC)c2)c(C)c1,-3,-6

Next part.
SMILES,NPYLR7 agonist,NPYLR7 agonist max-min
CC(=O)n1c(N2CCCCC2)c(O)c2ccccc21,-1,-2
CCC(=O)N1CCN(c2ncccc2C(=O)NCc2cccs2)CC1,2,0
CN(C)CC1(O)CCCN(C(=O)c2sccc2Cl)CC1 (stereo not given),9,7
CCc1nc(C(C#N)C(=O)c2cc3c(s2)CCC3)sc1C (stereo not given),-3,757
CC(C)(C)NS(=O)(=O)c1ccc(C(=O)N2CC(C(N)=O)Cc3ccccc32)o1 (stereo not given),7,5
CCOc1cccc(C(=O)N2CCC(n3cnc4cc(C(F)(F)F)ccc43)CC2)c1,-1,-3
COC(=O)C(C)(C)C(C)(C)NC(=O)c1ccc(OCC2CC2)cc1,2,3
COc1cccc(CN(C)C(=O)c2ncoc2-c2cccs2)c1,2,0

More structures:
SMILES,NPYLR7 agonist,NPYLR7 agonist max-min
O=C(NC1CC2CCC(C1)N2CC1CCCO1)c1cccc2c1-c1ccccc1C2=O (stereo not given),-1,4
O=C(NCc1ccc2c(c1)OCO2)c1ccc(CSc2nnc(-c3ccncc3)n2-c2cccc(Cl)c2)cc1,1,11
N#Cc1ccc(C(=O)Oc2ccc(Br)cc2)cc1,4,3
Cc1ccc(NS(=O)(=O)c2ccc(Cl)c([N+](=O)[O-])c2)cc1Cl,-1,-2
O=C(Nc1ccc(C(F)(F)F)cc1)c1ccn(-c2cccc(Cl)c2)n1,5,3
CCOC(=O)C(=O)N1CCCN(Cc2cc(=O)c(OCc3cccc(F)c3)co2)CC1,-1,3
CCOC(=O)c1c(NC(=O)CN2C(=O)c3ccccc3C2=O)sc2c1CCCC2,-8,-15
CCN(CC(=O)Nc1c(Cl)cccc1Cl)Cc1cc2c(cc1Br)OCCO2,3,1

Next section
SMILES,NPYLR7 agonist,NPYLR7 agonist max-min
COc1ccc(C2(NC(=O)Nc3cccnc3)CCCC2)cc1,0,-1
Cc1cccc(Nc2ncnc3c2CN(C(=O)c2csc(-c4ccc5nonc5c4)n2)CC3)c1,0,-2
CC1CC1c1ccc(CN(C(=O)c2ccc[nH]c2=O)C2CC2)o1 (stereo not given),3,2
Cc1ccccc1Nc1nc(N)nc(CN2CCCC2c2cccs2)n1 (stereo not given),7,1
CN(C)CCCN(C(=O)/C=C/c1cccs1)c1nc2ccc(F)cc2s1,0,-2
O=C(NCCc1nnc2ccc(SCC(=O)N3CCCc4ccccc43)nn12)c1ccccc1,4,-8
CNC(=O)c1cccnc1NC1CC2CCC1O2 (stereo not given),3,17
CCCC1CCC(c2ccc(-c3noc(-c4ccc(OC)c(OC)c4)n3)cc2)CC1 (stereo not given),-3,-8

Going on with the list.
SMILES,NPYLR7 agonist,NPYLR7 agonist max-min
Cc1nn2c(NCCN3CCOCC3)c3c(nc2c1-c1ccccc1)CCCC3,6,6
O=C(NCCOc1ccc(-c2ccco2)nn1)C1c2ccccc2Oc2ccccc21,-6,-6
Cc1cc(C(C)(C)C)cc(C)c1S(=O)(=O)Cl,9,4
CSc1ccc(COc2coc(CN3CCCN(C(=O)CO[C@@H]4C[C@H](C)CC[C@H]4C(C)C)CC3)cc2=O)cc1,-1,5
CNc1nc2cnc(Nc3cc(OC)cc(C(F)(F)F)c3)cc2n1CCOC,-8,-13
CCOC(=O)C1CCN(CC(=O)N2N=C(c3ccc(OC)c(OC)c3)CC2c2ccc(C)cc2)CC1 (stereo not given),-13,-8
Cc1nc2ccc(C(=O)N3CCc4c(cnn4-c4ccccn4)C3)cc2nc1C,0,19
COc1cccc(C(=O)N2CCSC23CCN(C(=O)/C=C/c2ccccc2)CC3)c1,-1,1

Other entries follow:
SMILES,NPYLR7 agonist,NPYLR7 agonist max-min
Cc1ccsc1CN(Cc1ccc(F)cc1)C(=O)CN(C(=O)c1ccc(Cl)cc1Cl)C1CC1,16,18
O=C1NCC(=O)N2CCN(C(=O)c3ccccc3OC(F)(F)C(F)F)CC12 (stereo not given),0,-1
COc1ccc2c(c1)CC(CNC(=O)c1cc(C)oc1C)O2 (stereo not given),21,29
CC1CCN(C(=O)Cn2cnc3c(nnn3Cc3ccc(Cl)cc3)c2=O)CC1,5,6
Cc1cccc(NC2CCN(C(=O)Nc3ccc(F)cc3C)CC2)n1,-24&9,-22&6
CC(=O)c1ccc(C(=O)Nc2nccs2)cc1,-4,-9
COc1ccc(-c2cccc(OC(C)C(N)=O)c2)c2cccnc12 (stereo not given),0,0
CCCCSc1nnc2c(n1)OC(c1ccc(OC)cc1OC)Nc1ccccc1-2 (stereo not given),-9,-14

By substructure: the compounds so far containing bromine.
SMILES,NPYLR7 agonist,NPYLR7 agonist max-min
N#Cc1ccc(C(=O)Oc2ccc(Br)cc2)cc1,4,3
CCN(CC(=O)Nc1c(Cl)cccc1Cl)Cc1cc2c(cc1Br)OCCO2,3,1

Remaining list, next part.
SMILES,NPYLR7 agonist,NPYLR7 agonist max-min
COc1ccc(C2C3(C#N)C(N)=NC(OC)(OC)C23C#N)cc1OC (stereo not given),1,-3
O=C(c1cccc(F)c1)N1CCC(N2CCCC(C(=O)N3CCCC3)C2)CC1 (stereo not given),-4,-5
CCC(=O)Nc1cccc(-n2nc(OCCc3ccc(OC)cc3)nc2-c2ccc(Cl)c(Cl)c2)c1,-19,-18
O=C(CNC(=O)c1ccc(Br)cc1)N=Nc1c(O)[nH]c2ccccc12,-3,-10
CC(=O)Nc1cccc(-c2cccc3[nH]ccc23)c1,7,4
O=c1c2cnc3ncnn3c2ccn1Cc1cccnc1,3,7
O=C(CCN1CCOC1=O)Nc1ccc(F)cc1-c1ccc(F)cc1,6,2
O=c1c(N=Nc2ccccc2O)c(-c2ccccc2)[nH]n1-c1ccccc1,-13,-22

Other compounds follow.
SMILES,NPYLR7 agonist,NPYLR7 agonist max-min
CC(=O)Nc1cccc(Cc2nc3cc(C)ccc3o2)c1,-1,5
CCCN1CCC(NC(=O)C(=O)Nc2cnn(-c3ccccn3)c2)CC1,-2,-3
CCOC(=O)c1cc(C2CC2)n(-c2ccc(C(=O)NCc3cccs3)cc2)n1,3,8
O=C(CCCNC(=O)C1CC1)NC(c1ccc(F)cc1)C1CC1 (stereo not given),0,30
CCCc1sc(C(=O)Nc2nnc(C3CC3)s2)cc1CC,1,-1
CCc1ccccc1SCc1csc(-c2ccc(OC)c(OC)c2)n1,3,1
CCSc1nnc(NC(=O)CSc2nnc(CNC(=O)c3cccc([N+](=O)[O-])c3C)n2-c2ccc(F)cc2)s1,-6,1
CN(C)c1ccc(C(=O)N2CCN(C(c3ccccc3)c3ccc(Cl)cc3)CC2)cc1 (stereo not given),5,6

Following part
SMILES,NPYLR7 agonist,NPYLR7 agonist max-min
COC(=O)c1sccc1NS(=O)(=O)c1ccc(C(C)=O)cc1,3,-2
O=C(CS(=O)(=O)c1ccc2c(c1)S(=O)(=O)N=CN2)N1CCN(c2ccc(F)cc2)CC1,-11,-20
Cc1nc(SCc2cccc(C(=O)O)c2)nc(N2CCCC2)c1C,13,14
NC(=O)C1CCN(C(=O)c2ccc(-n3cccc3)cc2)CC1,3,2
CC(C)[C@H](NC(=O)NCC(F)(F)F)C(=O)N1CCCC1,1,24
CCOC(=O)CC1C(=O)NCCN1C(=O)c1ccc(SC(F)(F)F)cc1 (stereo not given),3,4
NC(=O)C1CCN(c2ccc3cccc(OCc4c(F)cccc4Cl)c3n2)CC1,9,7
O=C(c1ccco1)N(Cc1nc2cc(Cl)ccc2o1)C1CC1,3,2

(more compounds)
SMILES,NPYLR7 agonist,NPYLR7 agonist max-min
CN(C)S(=O)(=O)Nc1ccc(N2CCC(NCc3ccc(OC(F)(F)F)cc3)CC2)cc1,15,-1
COCC(=O)N1CCCN(Cc2cnn3c(C)cc(C)nc23)CC1,10,7
Cc1cc(NC(=O)CC2CCCC2)n(-c2nc(-c3ccccc3)cs2)n1,-7,-13
COc1ccccc1-c1cnn2c(C)c(C(=O)NCCCCc3ccccc3)cnc12,4,-5
C[C@@H]1CN(C(=O)Cc2cccc(NC3OC(C4COC(C)(C)O4)[C@@H]4OC(C)(C)O[C@H]34)c2)C[C@H](C)O1 (stereo not given in full),-5,-12
CC(C(=O)Nc1ccccc1)S(=O)Cc1ccc(F)cc1Cl (stereo not given),-5,-6
COc1ccccc1NC(=O)c1cc(Nc2ccc(F)c(F)c2)nc2ccccc12,-1,-6
COCc1nc(N(C)Cc2csc(C(C)C)n2)c2cnn(C)c2n1,-1,5

(cont.)
SMILES,NPYLR7 agonist,NPYLR7 agonist max-min
O=C(NCc1n[nH]c(=S)n1-c1ccc(Br)cc1)c1cccc2ccccc12,-2,-3
CCN(Cc1ccc(Br)s1)S(=O)(=O)c1c(C)noc1C,6,3
CCOC(=O)CC1COCCN1C(=O)c1cc(COc2ccccc2F)[nH]n1 (stereo not given),1,-4
CC(NC(=O)C1CCCC1)C(=O)Nn1cnc2ccccc21 (stereo not given),-18,-21
Cc1nn(C)cc1C(=O)NC(CS(C)(=O)=O)c1ccccc1 (stereo not given),0,1
CCc1ccc(S(=O)(=O)NCCOc2ccc(-c3ccc(C)cc3)nn2)s1,-9,-15
COCCNC(=O)C(NC(=O)c1cccs1)C1CCN(C(=O)CCc2ccccc2)CC1 (stereo not given),3,8
COc1ccc(Cl)cc1NC(=O)N1CCC(n2cc(C3CC3)nn2)CC1,3,0

Some of the entries above in another layout:
Fields – NPYLR7 agonist	NPYLR7 agonist max-min
NC(=O)C1CCN(C(=O)c2ccc(-n3cccc3)cc2)CC1
    3	2
CC(C)[C@H](NC(=O)NCC(F)(F)F)C(=O)N1CCCC1
    1	24
CCOC(=O)CC1C(=O)NCCN1C(=O)c1ccc(SC(F)(F)F)cc1 (stereo not given)
    3	4
NC(=O)C1CCN(c2ccc3cccc(OCc4c(F)cccc4Cl)c3n2)CC1
    9	7
O=C(c1ccco1)N(Cc1nc2cc(Cl)ccc2o1)C1CC1
    3	2
CN(C)S(=O)(=O)Nc1ccc(N2CCC(NCc3ccc(OC(F)(F)F)cc3)CC2)cc1
    15	-1
COCC(=O)N1CCCN(Cc2cnn3c(C)cc(C)nc23)CC1
    10	7
Cc1cc(NC(=O)CC2CCCC2)n(-c2nc(-c3ccccc3)cs2)n1
    -7	-13
COc1ccccc1-c1cnn2c(C)c(C(=O)NCCCCc3ccccc3)cnc12
    4	-5
C[C@@H]1CN(C(=O)Cc2cccc(NC3OC(C4COC(C)(C)O4)[C@@H]4OC(C)(C)O[C@H]34)c2)C[C@H](C)O1 (stereo not given in full)
    -5	-12
CC(C(=O)Nc1ccccc1)S(=O)Cc1ccc(F)cc1Cl (stereo not given)
    -5	-6
COc1ccccc1NC(=O)c1cc(Nc2ccc(F)c(F)c2)nc2ccccc12
    -1	-6
COCc1nc(N(C)Cc2csc(C(C)C)n2)c2cnn(C)c2n1
    -1	5
O=C(NCc1n[nH]c(=S)n1-c1ccc(Br)cc1)c1cccc2ccccc12
    -2	-3
CCN(Cc1ccc(Br)s1)S(=O)(=O)c1c(C)noc1C
    6	3
CCOC(=O)CC1COCCN1C(=O)c1cc(COc2ccccc2F)[nH]n1 (stereo not given)
    1	-4
CC(NC(=O)C1CCCC1)C(=O)Nn1cnc2ccccc21 (stereo not given)
    -18	-21
Cc1nn(C)cc1C(=O)NC(CS(C)(=O)=O)c1ccccc1 (stereo not given)
    0	1
CCc1ccc(S(=O)(=O)NCCOc2ccc(-c3ccc(C)cc3)nn2)s1
    -9	-15
COCCNC(=O)C(NC(=O)c1cccs1)C1CCN(C(=O)CCc2ccccc2)CC1 (stereo not given)
    3	8
COc1ccc(Cl)cc1NC(=O)N1CCC(n2cc(C3CC3)nn2)CC1
    3	0

(further entries)
SMILES,NPYLR7 agonist,NPYLR7 agonist max-min
CSCCC(NC(=O)CN1C(=O)CSc2ccccc21)c1nc2ccccc2[nH]1 (stereo not given),7,5
Cc1cc2cc(C(=O)N3CCCC(C(=O)Nc4ccc(-c5ccco5)cc4)C3)ccc2o1 (stereo not given),-5,-6
O=C(NCc1ccccc1F)C(C1CCCC1)N1CCN(C(=O)C2CC2)CC1 (stereo not given),-4,1
NCc1cc(Br)cs1,15,7
